From PubChem
NPYLR7 ag – agonists of mosquito NPYLR7 receptor, primary screen, cell-based, Aedes aegypti, calcium fluorescence, mosquito biting behavior | HEK293T NPYLR7/Galpha15, GCaMP6s calcium fluorescence | activation, % at 10 µM | Aedes aegypti neuropeptide Y-like receptor 7 (NPYLR7) | AID 1259423, 2018 | actives 0.15% (n = 270,000); in the data active means activation above about 40%;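 further: 0% = vehicle and 100% = reference agonist at the receptor; some compounds past the cut are filed as inactive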
NPYLR7 ag max-min – second read-out of NPYLR7 ag, no call of its own (marks repeat the call); activation, %; measured here: Max-Min RFU normalised activation; some inactives read as strong as hits;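 span of the calcium signal over five minutes; 0% = vehicle and 100% = native peptide agonist; compound fluorescence can raise it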
An asterisk follows results filed as active; & = joins results of further samples. Some of the compounds tested. The share of hits here may be higher or lower than overall.

SMILES	NPYLR7 ag	NPYLR7 ag max-min
NC(=O)C(c1ccc(F)cc1)N1CCOC(c2ccc(F)cc2)C1 (stereo not drawn)	5.4	4.4
C[C@@H]1CN(C2(C(=O)NCCCn3cccn3)Cc3ccccc3C2)C[C@H](C)O1	2.3	-0.2
Cc1ccc(CNC(=O)Cn2ncn3nc4c(c3c2=O)CCCC4)cc1	-2.2	-7.8
CCOC(=O)c1ccc2c(c1)N(Cc1ccc(OC(F)(F)F)cc1)C(=O)C(C)S2 (stereo not drawn)	3.1	3.3
COCc1oc2c(cc(NS(=O)(=O)c3ccc(C)cc3)c3ccccc32)c1C(=O)OC	-2.2	-7.1
CN(C(=O)COc1ccccc1C(N)=O)C1CCCc2ccccc21 (stereo not drawn)	0.1	-2.1
CCc1nc2n(n1)C(=O)C(C(c1ccccc1F)N1CCN(CC)CC1)S2 (stereo not drawn)	-2.8	-8.1
O=C(Nc1ccc(Oc2ccccc2F)cc1)C1CCN(C(=O)c2ccncc2)CC1	-2.5&2.9	-4.9&1.1
O=C(Cc1cccs1)NCCn1ncc2c(N3CCN(c4ccccc4)CC3)ncnc21	0.4	-0.5
O=C(O)C(Cc1ccccc1)NC(=O)C1CC(c2ccc(Cl)cc2)=NO1 (stereo not drawn)	-1.0	-5.8
Fc1ccc(Nc2nc3ccc(Cl)cc3n3cnnc23)c(F)c1	7.9	3.0
Fc1ccc(CCC2CCCN(CCCn3cnnn3)C2)c(F)c1 (stereo not drawn)	3.9	3.6
O=C(NCCN1CCCC1)c1cc(-c2ccc(F)cc2)nc2cc(-c3ccccc3)nn12	9.9	8.8
CC(C)(O)C#Cc1ccc(C(=O)NCc2cnn(-c3ccc(F)cc3)c2)o1	5.3	-4.4
Cc1ccc(OCCn2c(SCCO)nc3ccccc32)c(C(C)C)c1	9.3	6.7
CC(c1ccccc1)N(C)CC(=O)Nc1sc2c(c1C#N)CCC2 (stereo not drawn)	11.5	3.7
CC1CCc2c(sc(NC(=O)c3ccccc3Cl)c2C(=O)N2CCCCCC2)C1 (stereo not drawn)	0.4	4.2
O=S(=O)(Nc1ccc(F)c(F)c1F)c1ccc(Cl)cc1F	-4.9	-7.4
COc1ccccc1-c1cc(C(=O)N2CCN(Cc3ccc4c(c3)OCO4)CC2)nc2cc(C(C)(C)C)nn12	15.2	18.9
CSc1ncccc1C(=O)N1CCCC(CO)(Cc2ccc(F)cc2)C1 (stereo not drawn)	17.5	4.7
Cc1ccc(N2CCN(S(C)(=O)=O)CC2)nn1	-12.7	-18.5
COCCN(Cc1cccs1)C(=O)C1=NN(C)C(=O)CC1	-3.2	-7.2
CCc1nnc2n1CCN(CC(=O)NN1C(=O)NC(C)(CC)C1=O)C2 (stereo not drawn)	6.6	7.6
CCC(NC(=O)/C=C/c1ccncc1)c1nc2ccccc2[nH]1 (stereo not drawn)	-1.1	16.9
CC(C)CCN1CCNC(=O)C1CC(=O)NCCc1ccc(F)cc1 (stereo not drawn)	4.7	2.7
COc1ccc(NC(=O)CN(C)C(=O)c2ccc3c(c2)C(=O)c2ccccc2-3)cc1	0.0	-1.3
COCCCN(Cc1c(C)nn(-c2cccc(F)c2)c1N1CCN(C)CC1)C(=O)c1ccc(Cl)cc1	2.6	13.6
CCNC(=O)N1CCC(C(NC(=O)CC(C)C)C(=O)N2CCCCC2)CC1 (stereo not drawn)	15.6	12.8
CCNC(=O)c1ccc(NC(=O)N(C)CCOc2ccc(OC)cc2)cc1	4.0	4.5
CC(=O)c1cccc(NC(=O)C2CCN(c3ccc(-c4ccco4)nn3)CC2)c1	-7.8	-14.5

Compound profiles, as listed above. Order of screens: NPYLR7 ag, NPYLR7 ag max-min
COc1ccc(NC(=O)CN(C)C(=O)c2ccc3c(c2)C(=O)c2ccccc2-3)cc1 across the screens: 0.0, -1.3
Cc1ccc(N2CCN(S(C)(=O)=O)CC2)nn1 across the screens: -12.7, -18.5
COCCN(Cc1cccs1)C(=O)C1=NN(C)C(=O)CC1 across the screens: -3.2, -7.2
CCc1nnc2n1CCN(CC(=O)NN1C(=O)NC(C)(CC)C1=O)C2 (stereo not drawn) across the screens: 6.6, 7.6
COCCCN(Cc1c(C)nn(-c2cccc(F)c2)c1N1CCN(C)CC1)C(=O)c1ccc(Cl)cc1 across the screens: 2.6, 13.6

(listing goes on)
SMILES	NPYLR7 ag	NPYLR7 ag max-min
COc1cccc(OC)c1C(=O)N1CCN(C(C(=O)NCCC(C)C)C2CCCC2)CC1 (stereo not drawn)	-7.7	-0.6
COc1ccc(N2C(=O)NC(c3ccc(OCC#N)cc3)C(C(=O)N3CCOCC3)=C2C)cc1 (stereo not drawn)	1.8	-0.1
CC(C(=O)NC1CCCC1)N1CCN(S(=O)(=O)c2ccccc2)CC1 (stereo not drawn)	1.0	-1.6
Cc1nc(C)c(C(=O)NCC2(N(C)Cc3ccccc3)Cc3ccccc3C2)s1	0.4	-3.5
Cc1ccc(NC(=O)CC(=O)N[C@H](CO)Cc2ccccc2)c(C)c1	-6.7	-9.8
CC(=O)N1CCC(C(=O)Nc2ccc(N3CCCC3)c(Cl)c2)CC1	9.5	5.4
CCOc1cn2c(cc1=O)C(=O)N(CCNC(=O)c1cc(Cl)ccc1OC)CC2	12.4	2.3
O=C(C=Cc1ccco1)NNC(=O)c1cccs1	11.5	11.2
CCOC(=O)[C@@H]1C[C@H]2CN(CCOC)C(=O)c3cccc(c32)N1C(=O)c1ccc(C)cc1	0.8	9.6
Cc1ccc(C)c(Cn2c(=O)c3c(nc4n3CCN4c3ccc(C)c(C)c3)n(C)c2=O)c1	2.4	1.0
Cc1nn(-c2ccccc2)c(Oc2ccc(F)cc2F)c1CN(CC(O)COc1ccccc1)C(C)C (stereo not drawn)	-3.6	-1.9
COc1ccc(C(=O)Nc2ccc(Nc3ccc(-n4cccn4)nn3)cc2)cc1	-8.3	-11.7
CCN(CC)C(=O)C(Cc1ccccc1)NCC(=O)Nc1ccc(C)cc1 (stereo not drawn)	-0.7	-4.1
Cc1ccc(C=NNC(=S)NCc2ccco2)o1	-0.8	3.8
CNC(=O)c1ccc(N2C(=S)N(c3ccc(C#N)c(C(F)(F)F)c3)C(=O)C2(C)C)cc1F	-3.4	-8.4
CCC(C)N(CC#Cc1ccccc1)C(=O)CC1=CCNCC1 (stereo not drawn)	-1.6	5.7
CC(Nc1nc(-c2cccs2)nc2ccccc12)C1CCCO1 (stereo not drawn)	7.3	2.5
CC1CN(C)CCN1C(=O)C(C)(C)c1ccc2c(c1)OCCO2 (stereo not drawn)	5.4	2.7
O=C(Nc1ccc(-c2cscn2)cc1)C1CCCN(Cc2ccoc2)C1 (stereo not drawn)	12.8	7.4
O=C(CCC1CCN(Cc2cnn(-c3ccccc3)c2)CC1)Nc1ccccc1Cl	5.3	3.4
C1Cc2sc3nc(CN4CCOCC4)nc(NC4CCCC4)c3c2C1	5.9	1.0
O=C1N(Cc2ccccn2)C(=O)C2(CCN(C3Cc4ccccc4C3)CC2)N1Cc1ccccc1	-9.2	-8.0
COc1ccc(C2CCCN2C(=O)C=Cc2ccccc2Br)c(OC)c1 (stereo not drawn)	-0.4	-0.6
COc1ccc(C=C2SC(=S)N(NC(=O)Cc3ccccc3)C2=O)cc1OC	-0.3	-5.1
CCC(C)C(=O)N1CCCC(C(=O)N(C)Cc2cccc(O)c2)C1 (stereo not drawn)	6.6	6.6
Cc1nc(-n2nc(C3CC3)cc2NC(=O)COc2ccc(Cl)cc2)[nH]c(=O)c1C	16.8	15.4
CCC(CC)C(=O)N(C)c1c(C)nc2ccc(C(=O)N3CCN(C(C)=O)CC3)cn12	12.5	6.2
Cc1ccccc1-c1cnnc(N2CCCC(OCc3cccnc3)C2)n1 (stereo not drawn)	-3.8	-5.3
COC(=O)[C@@H](NCc1nc(-c2ccccc2C)no1)c1ccccc1	1.7	0.1
Cc1ccc2oc(C(=O)NCCOc3nonc3C)cc2c1	14.5	9.0
CN(C)C(=O)c1ccc(NC(CCO)C2CCCCC2)nc1 (stereo not drawn)	-0.7	-1.5
CCOc1ccc(C2C(c3nc4ccccc4s3)=C(O)C(=O)N2c2cc(C)on2)cc1OC (stereo not drawn)	-1.5	-6.7
CCOC(=O)C1(Cc2cccc(OC)c2)CCCN(C(=O)CCN2CCCCO2)C1 (stereo not drawn)	16.1	9.9
CNS(=O)(=O)c1ccc(CCC(=O)NCCc2ccc3c(c2)OCO3)cc1	11.1	14.6
CN(C)CCCN(C(=O)c1ccc(F)cc1)c1nc2ccc(Br)cc2s1	1.7	-0.5
CCOCCOC1CCCN(C(=O)COc2ccc(Cl)cc2)C1 (stereo not drawn)	-8.7	-4.4
O=C(O)C1CCN(C(=O)c2ccc(-c3ccc(Cl)cc3)s2)CC1	3.8	3.1
Cc1cccc(NC(=O)Nc2ccc(Nc3cc(OC(C)C)nc(C)n3)cc2)c1	-8.0	-7.8
COc1cc(C)ccc1S(=O)(=O)NC(=O)C1(C)CCN1C(=O)C(C)(C)c1ccccc1 (stereo not drawn)	8.5	4.8
COc1cc(NC(=O)c2nccnc2-c2nc3ccccc3s2)cc(OC)c1	1.0	0.0

Some of the entries so far, with two lines to a compound.
Screens in order – NPYLR7 ag	NPYLR7 ag max-min
COc1ccccc1-c1cc(C(=O)N2CCN(Cc3ccc4c(c3)OCO4)CC2)nc2cc(C(C)(C)C)nn12
→ 15.2	18.9
CSc1ncccc1C(=O)N1CCCC(CO)(Cc2ccc(F)cc2)C1 (stereo not drawn)
→ 17.5	4.7
Cc1ccc(N2CCN(S(C)(=O)=O)CC2)nn1
→ -12.7	-18.5
COCCN(Cc1cccs1)C(=O)C1=NN(C)C(=O)CC1
→ -3.2	-7.2
CCc1nnc2n1CCN(CC(=O)NN1C(=O)NC(C)(CC)C1=O)C2 (stereo not drawn)
→ 6.6	7.6
CCC(NC(=O)/C=C/c1ccncc1)c1nc2ccccc2[nH]1 (stereo not drawn)
→ -1.1	16.9

2 entries from above, in CSV form.
Molecule,NPYLR7 ag,NPYLR7 ag max-min
O=C(O)C1CCN(C(=O)c2ccc(-c3ccc(Cl)cc3)s2)CC1,3.8,3.1
CN(C)C(=O)c1ccc(NC(CCO)C2CCCCC2)nc1 (stereo not drawn),-0.7,-1.5

New compounds follow:
SMILES	NPYLR7 ag	NPYLR7 ag max-min
O=C(CNC(=O)C1CC1(c1ccccc1)c1ccccc1)Nc1ccc2c(c1)CCC2 (stereo not drawn)	6.5	-2.8
O=C(NC1CCN(c2ccccc2C(=O)NCCc2ccccc2)CC1)c1cccs1	15.3	11.0
O=C(NCc1cccs1)c1cccnc1N1CCN(C(=O)c2ccco2)CC1	25.7	14.8
O=C(C1CCCC1)N(Cc1ccc(F)cc1)CC1CC(c2ccc3c(c2)OCO3)=NO1 (stereo not drawn)	21.4	22.9
CC(=O)N1CCC(C(=O)Nc2nn(Cc3ccc(COc4ccccc4)cc3)c3ccccc23)CC1	15.4	18.4
C/C(=N/N=C1\NC(=O)C(CC(=O)Nc2ccc(C)c(Cl)c2)S1)c1ccc(F)cc1 (stereo not drawn)	3.2	2.8
CC(=O)N1CCN(C(=O)CC2CSc3ncc(C)c(=O)n32)CC1 (stereo not drawn)	-1.5	-3.9
Cc1cc(-n2c(C)cc(C(=O)CSc3nnc(C)s3)c2C)no1	0.0	6.7
COCCCN(CC(=O)Nc1cc(C(C)(C)C)nn1-c1ccc(C)cc1C)C(=O)Nc1ccc(SC)cc1	4.7	11.8
Cc1ncc(C)c(-c2cccc(OC(C)C)c2)n1	6.6	6.4
CCC1CCCCN1C(=O)c1ccc2nc(Cc3ccc(OC)cc3)oc2c1 (stereo not drawn)	4.0	1.1
COc1cc(OC)cc(N(C)S(=O)(=O)c2ccsc2C(=O)n2nc(C)cc2C)c1	0.6	-1.2
N#Cc1nc(-c2ccco2)oc1N1CCN(C2CCOC2=O)CC1 (stereo not drawn)	7.1	3.6
CC(C)C[C@@H](N)C(=O)N(C)Cc1cc(C(C)(C)C)n[nH]1	26.9	22.8
Cc1ccc(-c2[nH]ncc2CNC2(c3ccccc3)CC2)cc1C	7.7	5.7
CC(C)Cc1ccc(CCCO)cc1	18.7	6.7
CCN(CC)C(=O)c1cc(-c2ccc(OC)cc2)nc2cc(C(C)(C)C)nn12	5.0	10.2
O=C(NC(c1ccc(-c2ccccc2)cc1)c1cnccn1)C1CCN(Cc2ccc(Oc3ccccc3)cc2)CC1 (stereo not drawn)	2.9	0.5
Nc1c(Sc2ccc(Br)cc2)c(Sc2ccc(Br)cc2)c(N)c2c1C(=O)c1ccccc1C2=O	1.5	12.6
